# High-throughput results deposited in PubChem by several laboratories.
# Mtb hypoxia inh: reduces hypoxia-regulated biosensor signal in M. tuberculosis. fluorescence inhibition, % (test concentration not listed). M. tuberculosis hypoxia-regulated fluorescent reporter, fluorescence. hit rate 0.1% among 300,000. AID 1159583;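 active means 35 to 45% if threefold the growth effect, above 45% if 1.5-fold the growth effect; inactive means the rest, general growth blockers included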;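 further: wells of about 50 µL received 100 nL stock; 0% = vehicle wells and 100% = reference inhibitor wells; whole bacteria with a GFP reporter of the hypoxia response; strong numbers were not always called active; many hits fall short of the cut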
# Sa RN4220 lethal: kills Staphylococcus aureus RN4220; S. aureus RN4220 growth, OD600, 16 h; inhibition, % (concentration not given with the values); hit rate 0.33% among 330,000;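 active means z-score of -3 or lower and OD600 up to 0.18 on both plates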;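 further: plate controls were untreated cells for no effect and reference antibiotic for full effect; stock transfer was 100 nL into about 80 µL; one replicate is shown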
# Sa ugtP lethal: compounds lethal to S. aureus RN4220 ugtP deletion mutant. AID 1259309. hit rate 0.54% among 330,000. OD600 growth, 16 h; some inactives read as strong as hits. growth inhibition, % (concentration not given with the values);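 active means z-score under -3 and OD600 up to 0.15 on both plates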;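 further: plate controls were untreated wells for no effect and antibiotic for full effect; wells of about 80 µL received 100 nL stock; the first replicate is given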
# BJeLR viability: kills HRASV12-expressing BJeLR cells. BJeLR (HRASV12) viability, CellTiter-Glo ATP luminescence, 48 h; reference of the scale not given here. inhibition, % (concentration not given with the values). hit rate 0.17% among 300,000;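 active means replicate mean above 50%; inconclusive means above 50% but judged a plate artefact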;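 further: 50 nL library stock added to about 25 µL; numbers are from one replicate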
# PrP 5UTR inh: suppresses PrP 5' UTR mRNA reporter expression | inhibition, % (concentration not given with the values) | hit rate 0.35% among 340,000 | cell-based PrP 5' UTR mRNA reporter, plate reader;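 active means every replicate at 50% or more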;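 further: 0 = median of the neutral control wells; tested in H4 reporter cells; numbers are from one replicate; inactives centre near -14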
# Bead autofluor: flagged as autofluorescent in microsphere protease counterscreen; AID 624483; hit rate 3.1% among 360,000; compound autofluorescence counterscreen, microsphere flow cytometry; hits give high values; fluorescence intensity (concentration not given with the values);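 active means at least 3 SD above the mean of all compounds, about 16000 in these data; inconclusive means too few beads counted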;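 further: 100 nL of 1 mM stock went into each well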
# Mtb hypoxia inh growth: second read-out of Mtb hypoxia inh, no call of its own (marks repeat the call); growth inhibition, %; measured here: M. tuberculosis growth (absorbance);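 0% = vehicle and 100% = reference antibiotic; read after six days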
# Numbers without * were called inactive; ? = inconclusive; . = not tested or not shown.
# Values run as follows: Mtb hypoxia inh	Mtb hypoxia inh growth	Sa RN4220 lethal	Sa ugtP lethal	BJeLR viability	PrP 5UTR inh	Bead autofluor
O=C(CNC(=O)C1CC(=O)N(c2cccc3ccccc23)C1)Nc1ccccc1Br (stereo unspecified)
  3	9	1.6	-3	.	7	3895
CC(Oc1ccc(F)cc1)C(=O)Nc1cc(S(=O)(=O)N2CCOCC2)ccc1N1CCCCC1 (stereo unspecified)
  4	0	-0.4	-2	-3	-12	?
Cc1ccc(C)c(Oc2nnnn2-c2ccccc2)c1
  10	6	0.9	0	0	-5	3932
Cc1cccc(OCC(=O)NCC(=O)NN=Cc2ccccc2)c1
  4	0	1.5	1	.	.	.
COc1cc(NC(=O)c2cc(C)no2)c(OC)cc1Cl
  7	2	6.5	8	4	-7	4143
O=c1oc2ccccc2c(Nc2ccc(F)cc2)c1[N+](=O)[O-]
  0	5	9.2	17	-2	-27	4439
CCCS(=O)(=O)n1nc(-c2ccc(Br)cc2)cc1N
  13	8	3.8	5	-12	-13	5719
Cc1ccc(SCCNS(=O)(=O)c2ccc(F)cc2)cc1
  11	8	-1.7	-1	-8	-9	8191
Cc1ccc(-n2cc(CNC(C)Cn3cncn3)c(-c3ccc(F)cc3)n2)cc1 (stereo unspecified)
  13	13	23	-60	-3	-91	3808
N/C(=N\OS(=O)(=O)c1ccc(Cl)cc1)c1cccnc1
  5	3	2.1	11	.	-19	8750
Clc1cccc(Cl)c1-c1noc(CN2CCOCC2)n1
  0	-6	2.9	8	-11	-11	4349
CC1(c2nnc(Cc3ccccc3)o2)CC(c2ccc(F)cc2)=NO1 (stereo unspecified)
  1	15	-0.2	-1	2	4	2992
CCCOC(=O)CC1C(=O)NCCN1Cc1ccccc1C (stereo unspecified)
  3	3	6.9	15	-10	-12	5637
CN(C)c1nc(Oc2ccc(=O)n(-c3ccccc3)n2)nc(N2CCOCC2)n1
  -1	4	0.8	-4	4	11	21946*
[O-][n+]1ccccc1SC/C=C/c1ccccc1
  6	4	0.9	6	-2	-18	2453
CCN(CC(=O)Nc1c(F)cccc1F)C(=O)c1ccc(S(=O)(=O)N2CCCCCC2)cc1
  4	7	4.2	6	.	-19	.
CC1CCN(CCCNC(=O)c2ccc3c(=O)n(Cc4ccc(Cl)cc4)c(=S)[nH]c3c2)CC1
  .	.	.	.	-6	-3	5740
Clc1ccc(-c2cnn3c(-c4ccncc4)ccnc23)cc1
  6	-2	0.0	8	1	-96	2576
Fc1ccc(NN=C(c2ccccc2)c2ccccn2)cc1
  2	12	12	45	.	.	.
N=C(c1cccc([N+](=O)[O-])c1)N1CCCCCC1
  10	5	0.2	4	-3	-15	6666

# The list goes on:
# Values run as follows: Mtb hypoxia inh	Mtb hypoxia inh growth	Sa RN4220 lethal	Sa ugtP lethal	BJeLR viability	PrP 5UTR inh	Bead autofluor
O=C(CSC1c2ccccc2-c2ccccc21)NN=Cc1ccccc1O
  7	0	1.5	-15	.	.	.
O=C(NC(=S)Nc1cccc2[nH]ncc12)c1ccccc1
  3	11	0.4	11	10	-49	4477
Cc1nc2n(n1)C(c1ccccc1)C1=C(CC(c3ccco3)CC1=O)N2 (stereo unspecified)
  2	3	0.5	4	8	-19	3813
COc1cccc(/C=C/C(=O)OCC(=O)c2ccc(C)c(C)c2)c1OC
  2	0	4.0	10	.	-15	2862
NC(=O)CSc1oc(-c2ccco2)nc1S(=O)(=O)c1ccc(F)cc1
  7	-6	1.4	7	-8	-25	3729
O=C(COC(=O)/C=C/c1ccc2ccccc2n1)NNC(=O)c1ccc([N+](=O)[O-])cc1
  9	8	3.7	0	.	-9	.
O=C(Nc1ccc(S(=O)(=O)NCCc2ccccc2)cc1)c1ccco1
  -2	10	-2.6	-7	-5	-30	23096*
Cc1ccc(N(C)C(=O)N2CCN(S(=O)(=O)c3ccc4ccccc4c3)CC2)cc1
  4	3	3.2	-5	4	-13	7935
Cc1ccc(OC(=O)c2cc(C)nn2C(C)(C)C)cc1
  7	11	14	40	-12	-21	3691
CCN(CC)S(=O)(=O)c1cccc(C(=O)Nc2ccc(S(=O)(=O)NC3=NCCCCC3)cc2)c1
  -8	3	-1.6	-5	4	-17	4303
Cc1cc(C)cc(C(=O)NCCC(=O)N2CCC3(CC2)NCCc2[nH]cnc23)c1
  0	9	-2.1	-2	6	-7	5814
COc1ccc(Cn2c(=N)c(C(=O)NC3CCCCC3)cc3c(=O)n4ccccc4nc32)cc1
  .	.	.	.	-1	-27	5088
Cc1ccc(N2C(=O)NC(NS(=O)(=O)c3ccccc3)(C(F)(F)F)C2=O)cc1 (stereo unspecified)
  -1	-1	4.0	7	-23	-8	3685
O=C(c1ccc(NC(=O)C(c2ccccc2)c2ccccc2)cc1)c1ccc(C(=O)O)c(C(=O)O)c1
  20	12	0.6	9	-2	-32	3616
Cc1ccc(Cl)cc1N1CCN(C(=O)Cc2cn(C)c3ccccc23)CC1
  5	6	-6.5	22	-2	-20	4551
CSc1nc(N)c(NC(=O)c2ccc(Br)o2)c(=O)[nH]1
  0	-9	-0.4	2	7	0	6463
O=C(CN(c1ccc(Cl)c(C(F)(F)F)c1)S(=O)(=O)c1ccccc1)N1CCOCC1
  .	.	4.3	-4	-2	12	2566
Cc1ccc(S(=O)(=O)N2CCCCC2C(=O)N2CCN(Cc3ccccc3)CC2)cc1 (stereo unspecified)
  2	7	5.5	1	-1	-5	9791
COc1ccc(NC(=S)N(CCc2c(C)[nH]c3ccc(C)cc23)Cc2ccco2)cc1
  .	.	.	.	2	-15	4445
CCC1=NN(C(=O)C(=O)Nc2ccccc2OC)C(O)(C(F)(F)F)C1 (stereo unspecified)
  -18	-4	6.8	-1	-5	-17	6776

# (further entries)
# Values run as follows: Mtb hypoxia inh	Mtb hypoxia inh growth	Sa RN4220 lethal	Sa ugtP lethal	BJeLR viability	PrP 5UTR inh	Bead autofluor
O=C(O)C1OC(Oc2cc3oc(-c4ccccc4)cc(=O)c3c(O)c2O)C(O)C(O)C1O (stereo unspecified)
  -5	4	11	-8	-3	-23	3994
Cn1nc(-c2ccc(Cl)cc2)c2cc(C(=O)N3CCOCC3)sc21
  .	.	-0.1	-11	7	-11	4060
COc1cccc(-n2nnc3c(=O)n(CC(=O)N4CCC(C)CC4)cnc32)c1
  11	5	6.1	0	-11	-2	8058
O=[N+]([O-])c1ccc2c(c1)nnn2-c1ccccc1
  11	7	3.5	6	-4	-21	.
O=c1[nH]c(=O)n(CCC2=CCCCC2)c(O)c1/C=N/Nc1cccc2ccccc12
  -4	14	1.3	-5	10	-16	4773
O=C1CSC(=S)N1CC1CCCO1 (stereo unspecified)
  7	14	7.7	6	6	4	9360
COc1ccc(N=c2scc(-c3ccc(OC)cc3)n2CCO)cc1
  9	14	4.1	7	-14	-38	3327
CCCCN(C)CCn1c(=S)[nH]c2ccc(N3CCOCC3)cc2c1=O
  -4	6	1.5	1	-2	-5	7946
CCCC(=O)N1c2ccccc2C(N(C(C)=O)c2ccccc2)CC1C (stereo unspecified)
  3	0	24	17	0	-3	2251
Cc1ccc(Sc2ccc(CO)cc2[N+](=O)[O-])cc1
  5	8	-0.9	-5	5	-7	2529
CCO[C@H]1OC(C(=O)NCc2nc3ccccc3[nH]2)=C[C@@H](c2ccccc2)[C@@H]1CCCO
  .	.	.	.	4	-6	4473
CC(C)COc1ccc(C(=O)OCC(=O)N(C)CC(=O)Nc2ccc(F)cc2)cc1
  -5	7	1.7	0	5	-20	6301
Cc1ccc(/C=N/NC(=O)CNC(=O)c2ccc(C)c([N+](=O)[O-])c2)o1
  .	.	.	.	9	-12	3491
COc1ccc2ccccc2c1CNC(C)c1ccccc1 (stereo unspecified)
  -6	-3	-0.5	-3	3	3	3148
CCN(Cc1ccccc1)c1ccc(C=NNS(=O)(=O)c2ccc(C)c([N+](=O)[O-])c2)cc1
  1	-1	-2.9	-9	.	.	.
OC(CCN1CCCCC1)c1ccc(-c2ccccc2)cc1 (stereo unspecified)
  3	5	4.5	13	-5	-27	3857
CCOC(=O)C1SC2(C(F)(F)C(F)F)CC1(O)c1c(c(OC)c3occc3c1OC)O2 (stereo unspecified)
  5	2	-3.1	-12	7	-20	9414
CCOc1cc(N2CCOCC2)c(OCC)cc1NC(=O)c1cc(C)cc(C)c1
  12	14	5.1	4	4	-14	4558
CCn1c(CNc2ccc(F)cc2)nnc1SCC(=O)N1CCCc2ccccc21
  3	12	7.9	11	5	-12	3487
Cc1ccc(NC(=O)C2CCN(C(=O)NC3CCCCC3)CC2)c(C)c1
  3	4	3.1	4	-7	-18	3263

# No new results follow: an excerpt of the list.
# Values run as follows: Mtb hypoxia inh	Mtb hypoxia inh growth	Sa RN4220 lethal	Sa ugtP lethal	BJeLR viability	PrP 5UTR inh	Bead autofluor
O=C(CNC(=O)C1CC(=O)N(c2cccc3ccccc23)C1)Nc1ccccc1Br (stereo unspecified)
  3	9	1.6	-3	.	7	3895
CC(Oc1ccc(F)cc1)C(=O)Nc1cc(S(=O)(=O)N2CCOCC2)ccc1N1CCCCC1 (stereo unspecified)
  4	0	-0.4	-2	-3	-12	?
Cc1ccc(C)c(Oc2nnnn2-c2ccccc2)c1
  10	6	0.9	0	0	-5	3932

# More results follow.
# Values run as follows: Mtb hypoxia inh	Mtb hypoxia inh growth	Sa RN4220 lethal	Sa ugtP lethal	BJeLR viability	PrP 5UTR inh	Bead autofluor
Cc1cc(-c2ccccc2C(=O)Nc2ccccc2O)on1
  -10	4	-2.4	-2	-7	-17	5235
CC(=O)Nc1ccc(S(=O)(=O)Nc2cc(C)cn(Cc3ccc(C)cc3)c2=O)cc1
  -23	-3	9.0	7	-4	4	3369
O=C(c1c(F)cccc1F)N1CCCC(c2nc(-c3ccc(Cl)cc3)no2)C1 (stereo unspecified)
  17	4	5.3	14	2	-11	3848
CCC(=O)OCC(=O)N=c1sccn1Cc1ccc(C)cc1
  0	-4	2.6	4	2	-11	4951
c1ccc(-c2nccc(-c3ccc4c(c3)OCO4)n2)cc1
  7	20	1.7	-4	3	-20	4386
CCn1nc2cc(C(=O)NCc3cc(C(F)(F)F)cc(C(F)(F)F)c3)ccc2c1OC
  9	10	0.9	1	-10	-7	3683
O=C(Nc1ccc(-c2ccco2)cc1)C1CCCN(Cc2ccc(CO)o2)C1 (stereo unspecified)
  14	0	2.1	0	2	-25	7125
Cc1cc(C)cc(-n2nnc(C(=O)NCc3ccccc3)c2N)c1
  -5	-4	-1.6	-8	-10	-3	3204
O=c1c2cc(NC(=S)N3CCC(N4CCCCC4)CC3)ccc2nc2n1CCCCC2
  12	4	6.3	3	-5	-37	4694
CCOC12CC(C)(C)CC(C)(CC3=C1C(=O)CC(C)(C)C3)C2 (stereo unspecified)
  4	-2	4.8	2	4	-5	2493
CN1CCN(N=C2C(=O)Nc3ccc([N+](=O)[O-])cc32)CC1
  0	1	5.1	7	.	.	.
COc1ccc(CNC(=S)Nc2cccc(OC)c2)cc1
  11	-1	5.1	4	10	-15	3959
O=C1C(=O)N(c2ccccn2)C(c2ccc(Br)cc2)/C1=C(/O)c1ccc(Br)cc1 (stereo unspecified)
  6	1	26	41	7	-29	4686
O=C(O)c1cccc(-c2nnn(Cc3ccccc3)n2)c1
  10	7	3.5	2	-5	-34	3995
COc1cc(C)c(S(=O)(=O)n2c([N+](=O)[O-])cnc2C)cc1C
  7	1	4.6	8	7	-13	3810
S=c1[nH]nc(-c2ccccc2)n1N=Cc1ccc(-c2ccccc2Cl)o1
  -7	3	7.4	26	.	.	.
Cc1c(Br)c([N+](=O)[O-])nn1C(C)C(=O)NCc1cccs1 (stereo unspecified)
  -11	2	0.4	-3	1	-55	10200
CCc1nnc(NC(=O)CSc2nnc(-c3cccnc3)n2CCc2ccccc2)s1
  13	10	3.4	2	-1	-11	6251
C[N+]1(CN2C(=O)C3C4C=CC(C4)C3C2=O)CCCCC1 (stereo unspecified)
  4	2	2.6	-1	2	-8	6364
O=C(Cc1cn(-c2ccccc2)nc1-c1ccccc1)N1CCCCC1
  1	2	3.4	1	6	-3	3787
CCOCCn1c(CN2CCN(CCO)CC2)nc2c1c(=O)n(C)c(=O)n2C
  13	6	-5.7	-7	7	-25	5677
COc1cccc(CNC(=O)COc2cc(O)c3c(c2)OC(C)(C)CC3=O)c1
  .	.	0.6	-4	6	-26	5477
Cc1cccc(Nc2nnc(SCC(=O)NCC3CCCO3)s2)c1 (stereo unspecified)
  -3	6	3.6	0	.	-28	4101
